NS1 inh: influenza NS1 inhibition | S. cerevisiae slowed by influenza A NS1, growth recovery by OD600 | Potency, µM (titrated, usually from 46.1 µM), for the others: at the top dose activity, positive = more growth | 270,000 tested, 0.4% active; also: actives are rising curves; nearly all actives have a fitted effect of over 50% in size
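OD600 was taken as the measure of yeast growth restored by compound in an NS1-expressing S. cerevisiae strain. Cells had been washed out of glucose medium and diluted 1:100 into galactose -URA medium, pH 6.0.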
Cruzain Triton: blocks cruzain activity in presence of Triton detergent. purified cruzain, Z-FR-AMC fluorescence, 0.01% Triton. Potency, µM, without a hit: max response, negative = inhibition, most hits filed as inhibitors. 200,000 tested, 0.43% active. AID 1478; active = well fitted curve in the direction sought with a large enough effect; inconclusive = small, poorly fitted or top-dose-only effect, or another doubt; inactive = no such curve, though single readings can be large; an effect the other way counts as inactive or inconclusive;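 also: plate controls were neutral wells for no effect and buffer without enzyme for full effect; nearly all actives have a fitted effect of over 40% in size; top concentration of the series not given in the record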
Target sequence (P25779 123-467 limits assumed): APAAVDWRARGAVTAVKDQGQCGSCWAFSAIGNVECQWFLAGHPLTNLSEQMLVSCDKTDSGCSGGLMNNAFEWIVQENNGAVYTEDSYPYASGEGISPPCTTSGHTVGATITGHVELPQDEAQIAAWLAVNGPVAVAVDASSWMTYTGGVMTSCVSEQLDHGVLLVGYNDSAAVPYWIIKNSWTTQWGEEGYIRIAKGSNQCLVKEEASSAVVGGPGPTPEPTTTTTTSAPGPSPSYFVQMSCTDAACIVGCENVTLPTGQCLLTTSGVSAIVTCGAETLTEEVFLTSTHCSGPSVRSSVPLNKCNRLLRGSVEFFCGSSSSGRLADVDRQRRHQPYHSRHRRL
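Sodium acetate buffer (100 mM, pH 5.5) containing 5 mM DTT and 0.01% Triton X-100 hosted 1.5 nM cruzain and test compound for 15 min at room temperature. Cleavage of 2 uM Z-FR-AMC was then tracked by fluorescence.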
SARS PLpro yeast: SARS-CoV PLP inhibition in yeast; S. cerevisiae expressing SARS-CoV PLpro, growth rescue; control for the full effect not named in the record; Potency, µM (doses to about 32.9 µM), without a hit: at the top dose activity, positive = growth rescue; 330,000 tested, 0.19% active; AID 485353; also: 0% is about no effect; nearly all actives have a fitted effect of over 55% in size; growth read by luminescence after 48 h
MARV entry inh: inhibitors of Marburg virus binding or cell entry | 300,000 tested, 1.8% active | Marburg virus pseudotyped entry inhibition, cell reporter; control for the full effect not named in the record; about a third of the inactives were read at about 46 µM | Potency, µM (highest dose often 37.8 µM), without a hit: at the top dose activity change, negative = inhibition, hits mostly inhibitors; active = well fitted inhibition curve with a large enough effect; inconclusive = small, poorly fitted or top-dose-only effect, or effect the other way; inactive = flat fitted curve, though single readings scatter; tested in HEK293 cells; about a fifth of its hits are not listed in these tables; also: % is scaled to controls: 0 for no effect and ±100 for the full control effect; luciferase read-out
RE007 growth inh: less growth of the S. pombe RE007 Vpr strain; S. pombe RE007 Vpr strain, BacTiter-Glo ATP luminescence, 24 h; control for the full effect not named in the record; Potency, µM (top dose mostly 92.2 µM), inactives show at the highest dose activity change, negative = less growth; 360,000 tested, 0.21% active; AID 651644; active = well fitted falling curve with a large enough effect; inconclusive = small, poorly fitted or top-dose-only effect; inactive = no such curve, though single readings can be large or run the other way;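 also: % is scaled to controls: 0 for no effect and ±100 for the full control effect; nearly all actives have a fitted effect of over 50% in size; the assay follows cell death caused by Vpr and the record does not say whether a fall means rescue or toxicity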
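Fission yeast strain RE007, carrying one chromosomally integrated HIV-1 vpr copy, was seeded at OD 0.01 in PMG+AL medium with 23 nL pinned compound. After 24 h at 30 °C and 99% humidity, viability was read by BacTiter-Glo luminescence.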
Lassa entry inh: Lassa virus entry inhibition. Lassa virus pseudotype entry inhibition, cell reporter; control for the full effect not named in the record. Potency, µM (doses to about 37.9 µM), inactives show at the top dose activity change, negative = inhibition, hits mostly inhibitors. 300,000 tested, 1.2% active. AID 540256; active means well fitted inhibition curve with a large enough effect; inconclusive means small, poorly fitted or top-dose-only effect, or effect the other way; inactive means flat fitted curve, though single readings scatter; tested in HEK293 cells; also: % is scaled to controls: 0 for no effect and ±100 for the full control effect; nearly all actives have a fitted effect of over 50% in size; luciferase read-out
StopGo reporter: FMDV 2A StopGo reporter, luciferase signal | human cells with a luciferase reporter of 2A StopGo recoding; control for the full effect not named in the record | Potency, µM (highest dose often 57.9 µM), for inactives: at the highest dose signal change, negative = less light | 410,000 tested, 1.2% active; active = well fitted falling curve with a large enough effect; inconclusive = small, poorly fitted or top-dose-only effect; inactive = no such curve, though single readings can be large or run the other way; tested in HEK293T cells; also: % is scaled to controls: 0 for no effect and ±100 for the full control effect; nearly all actives have a fitted effect of over 45% in size; luciferase light after 4 h
Cruzain inh noDet: blocks cruzain activity in detergent-free assay; purified cruzain, Z-FR-AMC fluorescence, no detergent; P25779; Potency, µM, for inactives: max response, negative = inhibition, actives largely listed as inhibitors; 200,000 tested, 2.3% active; active = well fitted curve in the direction sought with a large enough effect; inconclusive = small, poorly fitted or top-dose-only effect, or another doubt; inactive = no such curve, though single readings can be large; an effect the other way counts as inactive or inconclusive;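 also: plate controls were enzyme without inhibitor for no effect and buffer without enzyme for full effect; nearly all actives have a fitted effect of over 40% in size; top concentration of the series not given in the record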
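Detergent-free condition (0.00005% Triton X-100) in acetate buffer pH 5.5 with DTT. 1.5 nM enzyme and compound were pre-mixed 15 min, then 2 uM Z-FR-AMC substrate added; reaction progress from fluorescence change between first and third reads (60 s).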
The depositor's hits bear a star; ? = inconclusive; / = not tested or not shown; & = joins results of further samples; [ ] = another dose, or the depositor's remark. Unless noted, calls follow the shape of the dose curve; as a rule, active means well fitted rising curve with a large enough effect; inconclusive means small, poorly fitted or top-dose-only effect; inactive means no such curve, though single readings can be large or run the other way. Potency is read from the fitted curve at half-maximal effect.

SMILES | NS1 inh | Cruzain Triton | SARS PLpro yeast | MARV entry inh | RE007 growth inh | Lassa entry inh | StopGo reporter | Cruzain inh noDet
C=CCn1c(O)c(C=NC2CCN(Cc3ccccc3)CC2)c(=O)[nH]c1=O | 6% | / | 2% | / | 0% | / | -7% | /
COc1ccc(C(CNC(=O)c2ccc(S(=O)(=O)Nc3ccc(F)cc3)cc2)N(C)C)cc1 (stereo not given) | -12% | / | -17% | ? | 11% | 1% | -14% | /
C=CCc1ccc(O)c(-c2ccc(O)c(CC=C)c2)c1 | -67% | / | -3% | / | ? | / | ? | /
CCC1=C2CC[C@H]3C(=O)N(CC)C(=O)[C@H]3[C@H]2[C@@]2(Cc3ccccc3)C(=NCCOC)OC(=O)N2C1=O | 4% | 4.7% | -5% | / | -2% | / | 4% | -1%
O=C(COc1ccc2c3c(c(=O)oc2c1)CCCC3)NCc1ccncc1 | 0% | / | 19% | / | 5% | / | 0% | /
NNC(=O)c1sccc1OCc1ccc(Cl)cc1 | / | / | -11% | 20%[46.1 µM] | -1% | 2% | -15% | /
Cc1oc(/C=N/NC(=O)CC2(C)OCCO2)cc1Br | 1% | -5.5% | -1% | ? | 3% | 8% | -10% | -9%
Cc1ccc(N2CC(C(=O)Nc3ccc4c(c3)OCO4)CC2=O)cc1 (stereo not given) | 2% | 6.9% | 3% | 5% | 11% | 0% | -7% | ?
COCCNC(=O)CN1C(=O)COc2ccc(S(=O)(=O)N3CCCCCC3)cc21 | 12% | 0.7% | -1% | 5%&5%[46.1 µM] | 11% | 3%[46.1 µM] | -1%&-12% | -6%
O=C(N/N=C/C1CC=CCC1)c1ccc(Cl)cc1O (stereo not given) | -13% | -0.9% | 11µM* | 7% | / | 13% | -3% | 6%
COc1ccccc1CNC(=O)Cc1c(C)c2cc3c(C)coc3c(C)c2oc1=O | / | -0.9% | / | 0%[46.1 µM] | / | 11%[46.1 µM] | -15% | 0%
COc1ccc(-c2nnc(SCC(=O)Nc3cc(F)ccc3C)o2)cc1 | 0% | 3.7% | 0% | / | 4% | / | 0% | 2%
CC(C)=CC(=O)N1CCC(n2nccc2NC(=O)CCc2ccccc2)CC1 | 9% | / | -2% | / | -2% | / | 3% | /
CCOc1cc(C2C3=C(CCCC3=O)N(CC(=O)O)C3=C2C(=O)CCC3)ccc1OC | 8% | / | -10% | / | 6% | / | -4% | /
CCN(CC)CC(=O)Nc1c(C)cc(C(C)(C)C)cc1C | 1% | 9.1% | -2% | -5% | 17% | 12% | 12% | 4%
CCOC(=O)Cn1cnc([N+](=O)[O-])n1 | 8% | 2.0% | / | 7% | 5% | 0% | 1% | -10%
CCCc1ccc(OCC(O)CN2CCCC2)cc1 (stereo not given) | -2% | / | 4% | ? | 13% | -19% | 0% | /
Cc1cccc(OCC(=O)N/N=C\C=C\c2ccc3c(c2)OCO3)c1C | -1% | -1.4% | 1% | 2% | 1% | -2% | -26% | 2%
O=C(Cn1cnc2c(nnn2Cc2ccc(Cl)cc2)c1=O)NCC1CCCO1 (stereo not given) | 3% | 3.9% | 3% | -6% | -5% | -24%[14.3 µM] | 7% | -7%
COc1ccccc1-n1c(C)nnc1SCC(=O)Nc1cc(C)cc(C)c1 | -1% | 3.7% | / | 2% | 0% | 2% | -23% | 3%
COc1ccc(Cn2cc(C(=O)c3ccc(Cl)cc3)c(=O)c3cc4c(cc32)OCO4)cc1 | / | -5.6% | / | ? | / | ? | 29% | ?
O=C(C1CCN(S(=O)(=O)c2ccccc2)CC1)N1CCCCCC1 | 11% | / | -1% | 28% | 18% | -17% | -13% | /
CCCCN(CC)C(=O)Cn1c(=O)sc2ccccc21 | 1% | -1.2% | -4% | ? | 7% | -11% | / | 9%
Cc1ccc(S(C)(=O)=NC(=O)NC(=O)c2c(Cl)cccc2Cl)cc1 (stereo not given) | 0% | / | 0% | 19%&19% | -3% | 3% | -13% | /
CCC(=O)C1CCCN(C(=O)CCc2nnc(-c3ccc(C(C)=O)s3)o2)C1 (stereo not given) | -10% | / | 1% | / | -2% | / | 33%[activator] | /

Compounds above that have a furan ring, fused or not (2):
SMILES | NS1 inh | Cruzain Triton | SARS PLpro yeast | MARV entry inh | RE007 growth inh | Lassa entry inh | StopGo reporter | Cruzain inh noDet
Cc1oc(/C=N/NC(=O)CC2(C)OCCO2)cc1Br | 1% | -5.5% | -1% | ? | 3% | 8% | -10% | -9%
COc1ccccc1CNC(=O)Cc1c(C)c2cc3c(C)coc3c(C)c2oc1=O | / | -0.9% | / | 0%[46.1 µM] | / | 11%[46.1 µM] | -15% | 0%

Next structures follow:
SMILES | NS1 inh | Cruzain Triton | SARS PLpro yeast | MARV entry inh | RE007 growth inh | Lassa entry inh | StopGo reporter | Cruzain inh noDet
COc1ccc(C(CC(=O)NCc2ccccc2Cl)N2Cc3ccccc3C2=O)cc1OC (stereo not given) | / | -28% | / | / | / | -19%[46.1 µM] | 12% | -20%
COc1cccc(CNc2ncnc3cc(Cl)ccc23)c1 | -7% | / | -2% | ? | 3% | 6% | ? | /
CCOC(=O)C1=C(N)Oc2ccc3ccccc3c2C1c1cccnc1 (stereo not given) | 0% | -7.7% | -24% | -15% | 3% | 0% | ? | -7%
CC(=O)Nc1nc(-c2ccc3c(c2)CCN3S(C)(=O)=O)cs1 | 5% | / | 0% | 8%[46.1 µM] | 25% | -23% | 16% | /
CCC1(c2ccccc2)NC(=O)N(CC(=O)NCC2COc3ccccc3O2)C1=O (stereo not given) | / | / | 1% | 23% | -13% | -4% | -19% | /
O=C(NCc1ccccc1F)c1cc2ccccn2n1 | / | 0.8% | / | / | / | 14%[46.1 µM] | 67%[activator] | -10%
CCC(c1nnc(SCC(=O)Nc2ccc(C(C)=O)cc2)n1C1CCCCC1)N(C)C (stereo not given) | -9% | -0.7% | -10% | -16%[46.1 µM] | -8% | -7% | -4% | 14%
CN1CCN(CC(=O)N2c3ccccc3C(C)(c3ccccc3)CC2(C)C)CC1 (stereo not given) | -5% | 8.8% | -2% | ? | -13% | ? | ? | 12%
CC(C)c1ccc(C2C(C#N)=C(N)Oc3c2oc(CO)cc3=O)cc1 (stereo not given) | -3% | / | -1% | 8%[46.1 µM] | 4% | 15% | -16% | /
O=C(NC1CCCCC1)n1c(=O)oc2ccc(Cl)cc21 | -14% | 3.9% | 28% | 18%&18% | -7% | 17% | 34%[activator] | 1%
O=C(Nc1nnc(SCC(=O)N2CCCC2)s1)C1CC(=O)N(c2ccc(F)cc2)C1 (stereo not given) | 29% | / | 7% | ? | 13% | ? | 1% | /
Cc1cccc(N2CCN(C(=O)CNC(=O)c3cccc([N+](=O)[O-])c3)CC2)c1C | -17% | / | -5% | ? | 4% | -20% | ? | /
Cc1cc(C)cc(Nc2nc(-c3ccc(S(=O)(=O)N4CCCC4)cc3)cs2)c1 | 9% | -1.7% | 9% | ? | -20% | ? | ? | 16µM*
COc1ccc(CC(=O)OCC(=O)Nc2ccc(N3CCOCC3)cc2)cc1 | 4% | / | 0% | / | 4% | / | -5% | /
O=C(O)CN1C(=O)S/C(=C\c2ccc3c(c2)OCO3)C1=O | / | / | / | 12%[46.1 µM] | 5% | -13% | 4% | /
CCOc1ccccc1NC(=O)N1CCC(NC(=O)c2cccc(C)c2)CC1 | -9% | 2.5% | 5% | -4% | 10% | 0% | -16% | -1%
COc1ccc(S(=O)(=O)N2CCOCC2)cc1NC(=O)CN(C)Cc1c(F)cccc1Cl | / | / | -1% | ? | -9% | -25% | ? | /
O=C(CSc1cccc[n+]1[O-])c1cc2ccccc2o1 | -198% | -8.7% | -32% | 6% | 8.9µM* | ? | 51%[activator] | -16%
O=C(Nc1nnc(C2CC2)s1)c1ccccn1 | -122% | 7.6% | 10% | ? | ? | ? | -32% | 5%
O=C(Cc1cccs1)Nc1ccc(NC(=O)c2ccco2)cc1 | 3% | 7.3% | / | ? | 12% | 5% | 58%[activator] | -4%
CC1(C)CC(=O)c2cc(C(=O)N3CCCC(C)(C)C3)c(=O)n(-c3ccccc3)c2C1 | 9% | -1.4% | -1% | 4% | 22% | 0% | 17% | 5%
O=C(CSc1ncccn1)Nc1ccc(Cl)c(S(=O)(=O)N2CCOCC2)c1 | / | / | 0% | ? | 0% | 6%[46.1 µM] | -8% | /
O=C1C(=O)c2ccccc2C(O)=C1CCCCl | -47% | / | -4% | / | ? | / | 28µM* | /
CCOC(=O)c1cnc2c(C)c(Cl)ccc2c1NCCCN1CCOCC1 | 1% | / | 0% | / | -7% | / | -17% | /
N/C(CC(=O)Nc1ccc(F)cc1)=N\O | 4% | 0.6% | 4% | 1% | 3% | 0% | -19% | 4%
COc1ccc(NC(=O)CN2C(=O)c3cccc4cccc2c34)cc1OC | 8% | -3.8% | 24% | -9% | -15% | -5% | -7% | -6%
Cn1c(SCC(=O)NNC(=O)Cc2ccccc2)nnc1-c1ccc(Cl)cc1 | -2% | 5.0% | 0% | 5% | 4% | 8% | 13% | -5%
COc1ccccc1-c1nnc(NC(=O)c2ccc(S(=O)(=O)N3CCCC3)cc2)o1 | ? | / | -3% | / | 12% | / | -22% | /

Entries of single compounds, looked up by structure. Screens in order: NS1 inh, Cruzain Triton, SARS PLpro yeast, MARV entry inh, RE007 growth inh, Lassa entry inh, StopGo reporter, Cruzain inh noDet
CCC1(c2ccccc2)NC(=O)N(CC(=O)NCC2COc3ccccc3O2)C1=O (stereo not given) reads /, /, 1%, 23%, -13%, -4%, -19%, /
CC(=O)Nc1nc(-c2ccc3c(c2)CCN3S(C)(=O)=O)cs1 reads 5%, /, 0%, 8%[46.1 µM], 25%, -23%, 16%, /

2 records picked at random from the list so far, as already listed:
SMILES | NS1 inh | Cruzain Triton | SARS PLpro yeast | MARV entry inh | RE007 growth inh | Lassa entry inh | StopGo reporter | Cruzain inh noDet
CCCCN(CC)C(=O)Cn1c(=O)sc2ccccc21 | 1% | -1.2% | -4% | ? | 7% | -11% | / | 9%
Cc1oc(/C=N/NC(=O)CC2(C)OCCO2)cc1Br | 1% | -5.5% | -1% | ? | 3% | 8% | -10% | -9%

Screens: PubChem, National Center for Advancing Translational Sciences (NCATS)
